StopGo RLuc = lowers the Renilla signal of an FMDV 2A StopGo reporter; 120,000 tested, 0.32% active; HEK cells with a luciferase reporter of 2A StopGo recoding; Potency, µM (highest dose often 57.5 µM), inactives show at the highest dose signal change, negative = less light; active means well fitted falling curve with a large enough effect; inconclusive means small, poorly fitted or top-dose-only effect; inactive means no such curve, though single readings can be large or run the other way; also: nearly all actives have a fitted effect of over 55% in size; overnight with compound
StopGo FLuc = lowers the firefly signal of an FMDV 2A StopGo reporter. HEK cells with a luciferase reporter of 2A StopGo recoding. Potency, µM (series often up to 57.5 µM), for inactives: top-dose signal change, negative = less light. 120,000 tested, 0.23% active. AID 1745856; active = well fitted falling curve with a large enough effect; inconclusive = small, poorly fitted or top-dose-only effect; inactive = no such curve, though single readings can be large or run the other way; also: nearly all actives have a fitted effect of over 60% in size; overnight with compound
Active calls of the source: *; ? = inconclusive; [ ] = another dose, or the depositor's remark. % is scaled to controls: 0 for no effect and ±100 for the full control effect; potency is read from the fitted curve at half-maximal effect.

Screens in order: StopGo RLuc, StopGo FLuc
- CCOc1ccccc1-n1nnnc1SCc1nc2ccccc2[nH]1
  67%[activator], -6%
- CCCCCCCn1c(SCCC(=O)O)nc2c1c(=O)[nH]c(=O)n2C
  18%, 17%
- CCN(CC)S(=O)(=O)c1ccc(N(C)C)c(NS(=O)(=O)c2cc(C)ccc2C)c1
  107%[activator], -30%
- Cc1ccc(C(=O)OC(C)C(=O)NC(=O)NC2CCCCC2)c(O)c1 (stereo not given)
  -10%, -9%
- NCCC(=O)N1CCCC1
  3%, -3%
- O=C(COc1ccccc1Cl)Nc1ccccc1OCc1cc(=O)n2ccccc2n1
  3%, -22%
- N#Cc1ccc(NS(N)(=O)=O)cc1
  31%[activator], 65%[activator]
- O=C(Nc1c(-c2cc(=O)oc3ccc(Cl)cc23)oc2ccccc12)C1CC1
  -1%, 5%
- COc1ccc(C(CNC(=O)c2oc3ccccc3c2C)N2CCCCC2)cc1 (stereo not given)
  -1%, -13%
- Cc1ccc(Nc2nc(N)c(C(=O)C(C)C)s2)c(C)c1
  -3%, 172%[activator]

4 compounds out of the list, ordered by molecular weight, high to low.
Screens in order: StopGo RLuc, StopGo FLuc
- COc1ccc(C(CNC(=O)c2oc3ccccc3c2C)N2CCCCC2)cc1 (stereo not given)
  -1%, -13%
- O=C(Nc1c(-c2cc(=O)oc3ccc(Cl)cc23)oc2ccccc12)C1CC1
  -1%, 5%
- CCCCCCCn1c(SCCC(=O)O)nc2c1c(=O)[nH]c(=O)n2C
  18%, 17%
- NCCC(=O)N1CCCC1
  3%, -3%

(continued)
Screens in order: StopGo RLuc, StopGo FLuc
- O=C(CCc1ncc(-c2ccccc2)o1)NC1CCS(=O)(=O)C1 (stereo not given)
  13%, 10%
- CCCCn1nc(C(=O)N2CCCC2c2ccc3c(c2)OCCO3)c2ccccc2c1=O (stereo not given)
  22%, 31%
- O=C(Nc1c(-c2ccc(F)cc2)nc2ccccn12)c1cccc(F)c1
  -3%, 16%
- CC(OC(=O)C1=COCCO1)C(=O)Nc1ccc(N2CCOCC2)cc1 (stereo not given)
  6%, 0%
- Cc1cc(=O)n2nc(N(C)CC(=O)NCc3ccc(Cl)cc3)sc2n1
  -11%, 2%
- O=C(Cn1ccc2ccc(Br)cc21)NCCCO
  1%, 13%
- CCCCNC(=O)c1c(-c2ccccc2)nnc2ccccc12
  -5%, -4%
- COc1ccc(CC(=O)NC(C)c2ccco2)cc1 (stereo not given)
  -9%, 3%
- Cc1ccc(Cl)cc1N1CCN(C(=O)CNC(=O)NCc2ccc(F)cc2)CC1
  -24%, -17%
- C=CCSc1ccccc1NC(=O)c1sccc1C
  -5%[1.06 µM], 0%
- O=C(CCc1c[nH]c2ccccc12)N1CC=C(c2ccccc2)CC1
  -22%, -17%
- COc1ccccc1-n1ncc2c(=O)[nH]c(SCC(=O)Nc3ccc(Cl)cc3)nc21
  -4%, -12%
- CCc1ccccc1NC(=O)CN(C)C(=O)c1cc2ccc(F)cc2nc1C
  -9%, -2%
- CC(C)Oc1ccccc1-c1cc(C(=O)O)c2ccccc2n1
  ?, -19%
- CCNC(=S)NNC(=O)c1ccc(C(C)C)cc1
  -29%, 0%
- CCOC(=O)CSc1nc2c(sc3ccccc32)c(=O)n1CCO
  34%[activator], -5%
- Cc1ccc(-n2cnc3sc4c(c3c2=O)CCC4)cc1
  5%, 0%
- Cc1ccc(C(CNC(=O)c2ccco2)N2CCC(C)CC2)o1 (stereo not given)
  -8%, 3%
- COC(=O)c1cccc(NC(=O)CN2CCN(c3oc(-c4ccco4)nc3C#N)CC2)c1
  -7%, -4%
- COCCCNC(=O)CS(=O)(=O)Cc1nc(-c2cccc(OC)c2)oc1C
  0%, 1%
- CCNc1c(NC(=O)c2ccc(OC)c(Br)c2)c(=O)oc2ccccc12
  14%, 5%
- C/C(=N\NC(=O)CCC(=O)NCc1ccccc1)c1ccc(Cl)cc1
  71%[activator], 0%
- COC(=O)CCCCCNC(=O)C(SCc1ccccc1)C(C)C (stereo not given)
  ?, 24%
- N#Cc1cccnc1NCCNc1cc(Cl)nc(N)n1
  -6%, 17%
- CCC(=O)N1CCN(c2oc(/C=C/c3ccc(Cl)cc3)nc2C#N)CC1
  -11%, 4%
- Cc1ccc(C(=O)N(Cc2sccc2C)C2CCS(=O)(=O)C2)cc1 (stereo not given)
  -7%, 19%
- Nc1ccc(S(=O)(=O)Nc2ccccc2)cc1
  84%[activator], -8%
- Cc1ccc(S(=O)(=O)N2CCN(C(=O)c3cc4cc(C)ccc4nc3C)CC2)cc1
  3%, 14%
- COC(=O)C1=C(C)NC(=O)C1(NC(=O)c1cccc(C)c1)C(F)(F)F (stereo not given)
  19%, 18%
- O=C(CN1CCN(C(=O)c2ccc3ccccc3n2)CC1)NC1CC1
  -4%, 13%
- O=C(/C=C/c1ccc(OCc2ccccc2)cc1)c1ccc(N2CCOCC2)cc1
  6%, 35%[activator]
- Nc1nc(Cl)nc(NCc2ccccc2)c1[N+](=O)[O-]
  -10%, 37%[activator]
- N#Cc1cccnc1SCc1cccc(C(F)(F)F)c1
  -4%, 7%
- COCCn1c(CNC(=O)c2ccccc2C)nc2cccnc21
  -5%, -10%
- CCOc1ccc(S(=O)(=O)NCC(c2ccco2)S(=O)(=O)c2ccc(F)cc2)cc1 (stereo not given)
  175%[activator], -11%
- O=C(Nc1ccc(C(F)(F)F)cc1)c1cc(S(=O)(=O)NC2CCCCC2)ccc1F
  108%[activator], -15%
- COc1cc(Cl)c(C)cc1NC(=O)Cn1cnc2sc(C)c(S(=O)(=O)N3CCCCC3)c2c1=O
  -7%, -13%
- COc1ccc(OCCn2cc(C(=O)c3ccco3)c3ccccc32)cc1
  40%[activator], 16%
- CCOc1ccc(NC(=O)N(Cc2cn(CC)c3ccccc23)C2CCCCCC2)cc1
  6%, 94%[activator]
- Cc1cccc(N2CCN(C(=O)c3cccc(-n4c(C)nc5cccnc54)c3)CC2)c1C
  ?, 1%
- CN(CC(=O)N1CCN(CC(=O)Nc2cccc(F)c2)CC1)Cc1cnn(-c2ccccc2)c1
  -12%, 10%
- O=C(NCCCN1CCOCC1)c1ccc2c(c1)N(Cc1cccc(Cl)c1)C(=O)c1ccccc1S2
  -5%, -8%
- CCOC(=O)c1c(C)[nH]c(C(=O)C(C)OC(=O)c2cccc(O)c2)c1C (stereo not given)
  -17%, 0%
- NC(=NCc1ccccc1)NCc1ccc(F)cc1
  23%, 13%
- CC(C)c1ccc(Nc2c(-c3ccco3)nc3ccccn23)cc1
  -5%, 81%[activator]
- Cc1nc2cc(-c3ccccc3)nn2c(C)c1CC(=O)NCCc1ccccc1
  0%, 43%[activator]
- CCOc1cc(CNCC2CCCO2)ccc1OCc1ccccc1 (stereo not given)
  -7%, -10%
- COc1ccc(-c2nc(-c3ccccc3)c(-c3ccc(O)cc3)[nH]2)cc1
  ?, ?
- O=C(CSc1nccn1-c1cccc(C(F)(F)F)c1)Nc1cccc(F)c1
  22%, 2%
- CC(C)(C)NC(=S)N1CCn2cccc2C1c1ccccc1F (stereo not given)
  9%, 2%

Next results follow:
Screens in order: StopGo RLuc, StopGo FLuc
- COc1cc(-c2cc3n(C)c(C)c(CCC(=O)NC4CCCCC4)c(=O)n3n2)cc(OC)c1OC
  -8%, -6%
- COc1ccc(-c2nc3ccccc3n3c(-c4cccc(C)c4)c4c(=O)n(C)c(=O)n(C)c4c23)cc1
  -11%, -9%
- Cn1nc(C(=O)OCC(=O)Nc2ccc(OCc3ccccc3)cc2)c2ccccc2c1=O
  1%, 120%[activator]
- Cc1nn(-c2ccc(Cl)nn2)c2c1C(c1ccc3nccnc3c1)CC(=O)N2 (stereo not given)
  -7%, -8%
- N#Cc1nc(/C=C/c2ccc(F)cc2)oc1NCCCN1CCOCC1
  -13%, 6%
- COc1ccc(C(=O)c2ccccc2)c(OC(=O)c2ccccc2Sc2ccccc2C#N)c1
  16%, 33%[activator]
- O=C(NCCc1nc2ccccc2n1Cc1ccc(Cl)cc1)c1ccccc1
  26%, -21%
- CS(=O)(=O)c1cc(C(=O)NCCc2cccs2)ccc1Cl
  91%[activator], 167%[activator]
- N#C/C(=C\c1ccc(OC(=O)C2CC2)cc1)C(=O)Nc1cccc(C(F)(F)F)c1
  108%[activator], 0%
- CCOc1ccc2ncc(S(=O)(=O)c3ccccc3)c(N3CCCCCC3)c2c1
  16%, -3%
- C=C(C)Cn1c(SCC(=O)OC)nc2c1c(=O)[nH]c(=O)n2C
  2%, 10%
- Cc1nc2c(C)cccn2c(=O)c1Cc1nnc(SCC(=O)Nc2ccc(C(C)C)cc2)n1C
  -12%, -3%
- CCc1cc2c(=O)c(Oc3ccc(F)cc3)c(C(F)(F)F)oc2cc1OC(C)=O
  10µM*, 14µM*
- COc1ccc2cnn(CC(=O)Nc3cccc(Cl)c3Cl)c(=O)c2c1OC
  2%, 5%
- Cc1cc(Nc2ccc(Cl)c(Cl)c2)nc(-c2ccccc2O)n1
  -5%, -2%
- COc1ccc2c(C)c(CCC(=O)NCc3ccccc3)c(=O)oc2c1C
  9%, 33%[activator]
- COc1cc(OC)cc(C(=O)NCc2ccc3c(c2)CCN3C(=O)c2ccccc2)c1
  -16%, 0%
- Cc1cccc(N2CCN(S(=O)(=O)c3cc(C(=O)Nc4ccc(Oc5ccccc5)cc4)ccc3F)CC2)c1C
  10%, 39%[activator]
- O=C(CN1CCN(c2cc(-c3nc4ccccc4s3)c3ccccc3n2)CC1)N1CCOCC1
  43%[activator], 119%[activator]
- CCCC(=O)Oc1ccc2oc(-c3ccc(OC)cc3)cc(=O)c2c1
  64%[activator], 34%[activator]
- CC1CCc2sc(C(=O)N3CCN(c4ncccn4)CC3)cc2C1 (stereo not given)
  15%, 107%[activator]
- O=Cc1ccccc1-c1ccccc1C(=O)O
  1%, 5%
- CCOC(=O)c1c(NC(=O)CC2Sc3ccc(C(F)(F)F)cc3NC2=O)sc(C)c1C (stereo not given)
  -5%, -3%
- Cc1nnc2c3ccccc3nc(N3CCN(c4ccccc4)CC3)n12
  -4%, 4%
- Cc1ccc(N2CC(c3nnc(Cc4ccc(Cl)cc4)o3)CC2=O)cc1 (stereo not given)
  -20%, -14%
- Cc1nn(Cc2cccc(C(F)(F)F)c2)c(C)c1NS(=O)(=O)c1c(C)nn(C(F)F)c1C
  48%[activator], -19%
- COc1ccc(-c2nc3c4ccccc4n(CC(=O)Nc4cc(F)ccc4F)c(=O)n3n2)cc1
  1%, 12%
- Cc1cccc(C(=O)n2nc(-c3ccco3)nc2NCc2ccccc2)c1
  -10%, 37%[activator]
- Cc1cc(N2CCN(C)CC2)nc2ccc(NC(=O)c3ccccc3F)cc12
  -10%, 92%[activator]
- CCOC(=O)c1cncc(C#N)c1
  -7%, -5%
- COC(=O)c1ccc(COC(=O)c2cc(F)c(F)cc2Cl)cc1
  8%, 80%[activator]
- Cc1ccc(-c2nc(-c3cc4cccc(OCc5ccc(F)cc5)c4oc3=O)no2)cc1
  -9%, -15%
- Cc1ccc(OCCCC(=O)Oc2ccc3c(C)cc(=O)oc3c2)cc1
  -1%, 4%
- Cc1c2cnn(CC(=O)NCC(C)c3ccccc3)c(=O)c2c(C)n1Cc1cccc(Cl)c1 (stereo not given)
  -9%, -12%
- COc1ccc(NC(=O)C(NC(=O)Cc2cccs2)c2ccc(C)cc2)cc1 (stereo not given)
  0%, -1%
- CCN1CCN(c2cc(C)c3cc(NC(=O)CCC4CCCC4)ccc3n2)CC1
  -6%, 1%
- Cc1ccc(Cn2c(CNS(=O)(=O)c3ccc(C(C)(C)C)cc3)nc3cccnc32)cc1
  198%[activator], -10%
- Cn1c(=O)c2c(nc(N3CCOCC3)n2CC(=O)c2ccc(Cl)cc2)n(C)c1=O
  -10%, -3%
- CCOc1ccc(-n2cc(-c3ccccc3)c3c(N4CCC(C)CC4)ncnc32)cc1
  -16%, 0%
- COc1ccc(OC)c(S(=O)(=O)n2nc(C)c(S(=O)(=O)N(C)c3ccccc3)c2C)c1
  -3%, -4%

Full records, looked up by structure. Screens in order: StopGo RLuc | StopGo FLuc
CS(=O)(=O)c1cc(C(=O)NCCc2cccs2)ccc1Cl across the screens: 91%[activator] | 167%[activator]
COCCCNC(=O)CS(=O)(=O)Cc1nc(-c2cccc(OC)c2)oc1C across the screens: 0% | 1%
Cc1ccc(-c2nc(-c3cc4cccc(OCc5ccc(F)cc5)c4oc3=O)no2)cc1 across the screens: -9% | -15%
CCNC(=S)NNC(=O)c1ccc(C(C)C)cc1 across the screens: -29% | 0%
NC(=NCc1ccccc1)NCc1ccc(F)cc1 across the screens: 23% | 13%

Going on with the list.
Screens in order: StopGo RLuc, StopGo FLuc
- CCc1cc2c(CN3CCN(C)CC3)cc(=O)oc2cc1O
  -7%, 0%
- CCCn1nc(C(=O)N(CC)CC(=O)NC2CCS(=O)(=O)C2)c2ccccc2c1=O (stereo not given)
  -1%, 4%
- CCOC(=O)c1ccc(NS(=O)(=O)c2ccc3c(c2)OCCO3)cc1
  0%, -6%
- C#CCN1CC(N(C)CCOC(=O)CSc2ccccc2)CS1(=O)=O (stereo not given)
  4%, -7%
- COc1ccc2cc(C(=O)Nc3ccc(N(C)C)c(C)c3)c(C)nc2c1
  -9%, -6%
- N#Cc1nc(COc2ccc(Br)cc2)oc1N1CCCCC1
  16%, 0%
- CCC(C)NC(=O)C(C)NC(=O)NCc1ccc(C(F)(F)F)cc1 (stereo not given)
  6%, -11%

Assay outcomes deposited in PubChem by National Center for Advancing Translational Sciences (NCATS).
